# Screens: PubChem BioAssay, several laboratories
# PABP polyA inh: PABP-poly(A) binding inhibition | inhibition, % at 35 µM | 290,000 compounds, 1% hits | P11940 | PABP-poly(A) RNA binding, fluorescence polarization;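 active = 50% or more with normal probe brightness, or confirmed in later tests; inconclusive = above 50% with abnormal brightness, or retests that disagree; inactive = below 50% or failed in later tests; about a fifth of its hits are not listed in these tables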;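 also: calls also rest on retests at 20 µM and on dose response follow-up; controls were probe without protein and protein plus probe with vehicle; some compounds called inactive have numbers as strong as hits; many hits fall short of the cut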
# Yeast UUG start: yeast start codon fidelity modulation | 350,000 compounds, 0.13% hits | activity score, % at 18.7 µM | S. cerevisiae UUG-firefly luciferase reporter, luminescence/redox ratio;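 active = replicate mean at a twofold rise or more, about +100% in these data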;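 also: firefly luciferase made from a UUG start codon reports start codon fidelity; reporter light over untreated wells divided by growth signal over untreated wells; some hits fall short of that in this replicate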
# CSC inhib: blocks cancer stem cells | cancer stem cell-like cells viability, luminescence | inhibition, % at 7.5 µM | 300,000 compounds, 1.1% hits | AID 2717;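 active = mean at 75% or more and at least half the replicates too; inconclusive = mean and replicates disagree; tested in HMLE shEcad cells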;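 also: 0% = median of negative and 100% = median of positive control wells; the first replicate is given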
# Env fusion inh: inhibitors of HIV Env-mediated cell fusion; inhibition, % at 12.3 µM; 360,000 compounds, 1.1% hits; HeLa-JRFL Env/CEM21 cell fusion, luciferase;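 active = mean replicate inhibition score of at least 50 and every replicate individually at or above 50; inconclusive = only one of the two criteria met; inactive = mean below 50 and not all replicates reaching 50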;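 also: 0% = plate neutral controls and 100% = maraviroc near 300 nM; one replicate is shown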
# MT1-MMP act inh: inhibitors of human MT1-MMP activation. AID 651647. HT1080 RFP-PRO-GFP cells, GFP/RFP ratio fluorescence, overnight; percent of plate control window, DMSO zero. P50281. 360,000 compounds, 0.061% hits. GFP/RFP ratio change, % at 20 µM;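 active = GFP/RFP ratio change of at least 30% with cell ATP level not reduced by more than half and red fluorescence within 50% of control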; also: strong numbers were not always called active
#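 system = RFP-PRO-GFP reporter HT1080 cells | dosing = 20 µM single dose, 1% DMSO | timing = overnight cell settling, then overnight compound exposure, 37 °C, 5% CO2 | read-out basis = GFP/RFP fluorescence ratio | controls = DMSO and RFP-L50D-GFP cell wells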
# Rce1 inhib: inhibitors of yeast Ras-converting enzyme. AID 2563. 290,000 compounds, 0.27% hits. calls only. Q03530. yeast membranes, quenched prenylated peptide cleavage fluorescence;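 active = fall in fluorescence gain of 50% or more versus controls, with final raw signal at or below 3038400; inconclusive = same 50% fall but final raw signal above 3038400; inactive = fall in fluorescence gain under 50%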;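 also: plate controls were neutral control wells for no effect and wells lacking membranes for full effect; tested at 10 µM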
# Target sequence (Q03530 whole entry, looked up): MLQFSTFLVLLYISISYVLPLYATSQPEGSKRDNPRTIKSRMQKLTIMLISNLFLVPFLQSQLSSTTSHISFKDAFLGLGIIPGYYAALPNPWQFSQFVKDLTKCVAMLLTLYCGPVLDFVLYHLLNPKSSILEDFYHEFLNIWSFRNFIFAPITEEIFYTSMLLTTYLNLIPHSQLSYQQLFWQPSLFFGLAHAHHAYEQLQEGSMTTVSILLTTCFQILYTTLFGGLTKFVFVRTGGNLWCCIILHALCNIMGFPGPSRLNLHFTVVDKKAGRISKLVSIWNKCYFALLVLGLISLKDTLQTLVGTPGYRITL
# eIF4H FP inh: inhibitors of RNA binding by human eIF4H. inhibition, % at 35 µM. Q15056. eIF4H fluorescence polarization binding assay. AID 2012. 290,000 compounds, 0.94% hits;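 active = 50% or more with normal probe brightness, or confirmed in later tests; inconclusive = above 50% with abnormal brightness, or retests that disagree; inactive = below 50% or failed in later tests; about a fifth of its hits are not listed in these tables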;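 also: calls also rest on retests at 20 µM and on dose response follow-up; 0% = protein and probe with vehicle and 100% = probe without protein; strong numbers were not always called active; many hits fall short of the cut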
# eIF4H FP inh retest: second read-out of eIF4H FP inh, no call of its own (marks repeat the call); inhibition, %; compound at 20 µM; confirmation average;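 mean of two retest wells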
# PABP polyA inh retest: also measured in PABP polyA inh; calls as there; inhibition, %; compound at 20 µM; confirmation repeats;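 mean of two retest wells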
# MT1-MMP act inh RFP: recorded beside MT1-MMP act inh, whose call it bears; RFP signal change, %; measured here: RFP expression control read;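 0 = vehicle wells; hits needed this value within 50% of zero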
# The depositor's hits bear a star; i = inactive; ? = inconclusive; / = no result given.
SMILES,PABP polyA inh,Yeast UUG start,CSC inhib,Env fusion inh,MT1-MMP act inh,MT1-MMP act inh RFP,Rce1 inhib,eIF4H FP inh,others
O=CN1CCN(C(=O)c2ccccc2Cl)CC1,-9,6,12,/,5,7,i,-10,
Cc1nc(SCc2ccc(Cl)c(Cl)c2)n[nH]1,4,-14,-17,-9,-2,1,i,1,
COC(=O)COc1ccc(=O)n(-c2ccccc2)n1,5,-3,-3,-1,2,3,i,-6,
COc1ccc(O)c(C(=O)c2cnn(S(=O)(=O)c3ccc(C)cc3)c2)c1,/,-21,/,13,-8,-5,/,/,
Cc1ccc(CNC(=O)CN(Cc2cccs2)C(=O)C2(C)CC(=O)N=C3C=CC=CN32)cc1 (configuration not stated),0,-17,-19,/,-2,-2,?,-10,
Cc1ccc(-n2c(CNc3ccc(F)cc3)nnc2SCC(=O)N2CCCC2)cc1,3,-15,-24,35,3,4,i,-2,
c1ccc(-c2nnc(CN3CCCc4ccccc43)o2)cc1,43,-2,-3,/,-8,8,i,11,
N#Cc1nc(Cl)c(Cl)c(NN)c1Cl,8,/,-10,11,-2,-2,i,5,
Oc1ccc(Cl)cc1CNCC1CCCO1 (configuration not stated),-15,-1,-5,-25,2,1,i,8,
CCOC(=O)c1cnc(Nc2nc3ccccc3o2)nc1CSC(=S)N1CCCCC1,-7,/,8,-9,3,1,i,14,
COC(=O)c1ccccc1NC(=S)N1CCOCC1,6,-8,-14,1,-1,3,i,4,
C/C(=N/NC(=O)c1cc(-c2ccccc2)nc2c(Cl)cccc12)c1cccnc1,-7,10,13,10,/,/,i,-8,
COCCN(C(=O)COC(=O)CSc1ccccc1)c1c(N)n(Cc2ccccc2)c(=O)[nH]c1=O,/,/,-6,-19,4,6,i,/,
COc1ccc(/C=C(\NC(=O)c2ccccc2)C(=O)NC2CCS(=O)(=O)C2)cc1 (configuration not stated),4,8,3,10,-2,1,i,9,
O=C(Nc1cccc(-c2cccc(Cl)c2)c1)C1CCN(Cc2ccc(CO)o2)CC1,-19,-13,-6,-2,3,0,i,-12,
Cn1nc(-c2ccc(Cl)cc2)cc1NC(=O)Nc1ccccc1,-6,-5,10,-15,5,3,i,1,
O=C(N=c1nc2ccccn2s1)c1ccccc1,-6,-57,7,-109,-4,1,i,-13,
CC(C)CCC(C(=O)O)C(C)CC(=O)Nc1ccn(-c2ccccc2)n1 (configuration not stated),2,-2,/,-10,-4,-1,i,-7,
O=C(NCC(=O)N(c1cccnc1)C(C(=O)NC1CCCC1)c1cccs1)c1cccs1 (configuration not stated),0,/,-5,1,1,2,i,-3,
CCOC(=O)c1ccc(N2C(=O)CC(Sc3nc(O)c(CC)c(=O)[nH]3)C2=O)cc1 (configuration not stated),-7,-8,-5,/,4,3,i,7,
Cc1ccc(S(=O)(=O)N(C)C)cc1NC(=O)C1CCCN(C(=O)c2ccc(Cl)cc2)C1 (configuration not stated),/,/,-14,-36,1,-7,i,/,
O=C(CN(C(=O)c1csnn1)c1cccc2c1CCCC2)NCc1ccccc1,-2,4,-8,8,-4,-5,i,-5,
S=C(NC1CCCCC1)N1CCOCCOCCN(C(=S)NC2CCCCC2)CCOCC1,-2,-24,7,5,1,2,i,-9,
CCOC(=O)C1=C(C)N(c2nonc2NC(C)=O)C(N)=C(C#N)C1c1ccccc1F (configuration not stated),10,98,-5,/,3,6,i,-4,
COc1ccc(S(=O)(=O)NCc2cccnc2)c2ccccc12,2,-5,-2,-7,-4,-2,i,-12,
Cc1ccc(NC(=O)c2ccc(-c3cc(Cl)ccc3Cl)o2)c(C)c1,/,-2,/,5,-3,-5,/,/,
Cc1cc(N2CCCC2)nc2ccc(NC(=S)NCCCN3CCC(C)CC3)cc12,-1,/,2,17,6,2,i,18,
CN(CC(=O)Nc1cccc(F)c1)C(=O)COc1cccc2c1OC(C)(C)C2,3,-9,-11,9,2,3,i,-6,
COc1ccc(CNC(=O)[C@@H](NC(=O)C2CCN(S(=O)(=O)c3ccccc3)CC2)C(C)C)cc1,-7,1,15,-7,4,0,i,-7,
CC1CCCCC1NC(=O)COC(=O)c1ccc(N(C)C)cc1 (configuration not stated),1,-4,9,-37,17,-1,i,-9,

# Reprinted from the listing (five entries):
SMILES,PABP polyA inh,Yeast UUG start,CSC inhib,Env fusion inh,MT1-MMP act inh,MT1-MMP act inh RFP,Rce1 inhib,eIF4H FP inh,others
Cc1ccc(S(=O)(=O)N(C)C)cc1NC(=O)C1CCCN(C(=O)c2ccc(Cl)cc2)C1 (configuration not stated),/,/,-14,-36,1,-7,i,/,
O=C(CN(C(=O)c1csnn1)c1cccc2c1CCCC2)NCc1ccccc1,-2,4,-8,8,-4,-5,i,-5,
S=C(NC1CCCCC1)N1CCOCCOCCN(C(=S)NC2CCCCC2)CCOCC1,-2,-24,7,5,1,2,i,-9,
CCOC(=O)C1=C(C)N(c2nonc2NC(C)=O)C(N)=C(C#N)C1c1ccccc1F (configuration not stated),10,98,-5,/,3,6,i,-4,
COc1ccc(S(=O)(=O)NCc2cccnc2)c2ccccc12,2,-5,-2,-7,-4,-2,i,-12,

# Other results follow:
SMILES,PABP polyA inh,Yeast UUG start,CSC inhib,Env fusion inh,MT1-MMP act inh,MT1-MMP act inh RFP,Rce1 inhib,eIF4H FP inh,others
COc1cc(OC)c(C(=O)Nc2ccncc2)cc1OC,-1,-11,-11,4,4,-1,i,-3,
Cc1nn(C)cc1CN(C)C(=O)C1CCC(=O)N(CCc2cccc(F)c2)C1 (configuration not stated),/,-15,/,-24,-1,0,/,/,
Cc1cc(C)nc(NC(=NCCc2c[nH]c3ccccc23)NC(=O)Nc2ccc(Cl)cc2)n1,-5,1,97*,-1,4,-5,i,10,
COc1ccc(NS(=O)(=O)c2cc([N+](=O)[O-])ccc2NN=Cc2ccccc2OCC(=O)O)cc1,/,0,-13,/,0,1,/,/,
C[C@@H]1[C@@H](Sc2ccccc2)CC(=O)O[C@@H]1c1ccc(-c2ccccc2)cc1,/,-3,20,-18,2,-11,i,/,
COc1cccc(-c2n[nH]c3c2CCC3)c1,9,/,-17,-63,-2,5,i,-11,
CC1CN(C(=S)Nc2cccc(Cl)c2)CC(C)O1 (configuration not stated),-6,-13,-10,7,4,3,i,-6,
CC(=O)c1ccc(S(=O)(=O)Nc2ccc(-c3ccc4nncn4n3)cc2)cc1,/,-23,8,1,-5,-1,i,/,
CCN1C(=O)c2cccc3c(S(=O)(=O)Nc4ccccc4O)ccc1c23,11,-11,-1,3,16,8,i,13,
CC(=O)Nc1ccc(SCC(=O)c2cc(C)n(-c3ccccc3F)c2C)cc1,-10,7,87*,-26,-5,-13,i,2,
COc1cc2c(cc1OC)[C@@H](NC(=O)COc1ccccc1)[C@H](OCc1ccccc1)C2,/,-13,/,17,-1,-4,/,/,
CN(C)CCCNC(=S)N1CCC(c2nc3ccccc3[nH]2)CC1,-6,-18,-11,4,-4,1,i,-8,
Cc1ccc(NC(=O)c2cc(S(=O)(=O)N(C)C)ccc2N2CCCC2)cc1F,-8,29,22,9,-4,-9,i,-6,
CN(C)c1ccc(C(=O)Nc2ccc(S(=O)(=O)NC3=NCCCCC3)cc2)cc1,3,-7,-21,-43,5,3,i,1,
NC(=O)C1CC=CCC1C(=O)OCC(Cl)=C(Cl)Cl (configuration not stated),5,-12,-10,-16,2,3,i,-1,
CC(=O)NCCSCCNC(C)=O,-15,-8,-11,-60,6,7,i,2,
COc1cc2c(cc1OC)C(C)N(C(=O)C1=NN(c3cccc(C)c3)C(=O)CC1)CC2 (configuration not stated),-1,-9,6,-1,2,3,i,-4,
Cc1cnc(NC(=O)CSc2nnc(-c3ccc(Cl)cc3Cl)n2N)s1,16,-12,-10,/,1,1,/,16,
O=C(O)c1ccccc1-c1ccccc1C(=O)NCc1ccccc1Cl,10,-11,2,13,1,0,i,-7,
Cc1ccn2cc(-c3cccc(NC(=O)C(C)C)c3)nc2c1,-8,/,-3,-13,2,1,/,-4,
COc1ccc(S(=O)(=O)N2CCN(Cc3ccc4c(c3)OCO4)CC2)cc1F,4,-8,2,5,1,-3,i,1,
NC(=O)c1cnn(Cc2ccc(Cl)cc2)c1N,0,-10,-2,-29,-128,-76,i,-5,
CC1CCN(C(=O)CCc2ccc(Oc3cc([N+](=O)[O-])cc([N+](=O)[O-])c3)cc2)CC1,3,/,50,21,-1,-2,i,-1,
COc1ccccc1OCc1nc2ccccc2s1,-11,-45,6,/,-3,-5,i,-2,
O=C(NC1CCCCC1)C(c1cccs1)N(C(=O)c1ccccn1)c1ccccc1 (configuration not stated),54,-9,-13,?,-1,5,i,-11,eIF4H FP inh retest=-2;PABP polyA inh retest=1
Cc1ccc2nc(NC(=O)CN3CCN(c4ccccn4)CC3)sc2c1,0,-40,-5,10,1,-3,i,5,
Cc1ccc(-c2nn(-c3ccccc3)cc2C2SCC(=O)N2Cc2ccccc2)o1 (configuration not stated),9,-24,10,-8,-2,-7,i,-3,
CCOCCCNC(=O)C(c1ccc(C)cc1)N(Cc1cccs1)C(=O)c1ccccc1O (configuration not stated),12,/,0,50,-7,-4,i,-5,
CC12CCC(C(N)C1=O)C2(C)C (configuration not stated),/,-12,/,-4,0,1,/,/,
CCCC(CCC)C(=O)Nc1cccc(-c2cn3c(n2)SCC3)c1,-10,0,-22,-4,2,2,i,-7,
COC(=O)c1ccc(C(=O)Nc2nnc(-c3cccnc3)o2)cc1,-6,/,-2,-6,/,/,i,2,
CC(C)N1CC(COc2ccc(Cl)cc2Cl)OC1=O (configuration not stated),-3,-18,-1,-82,0,1,i,-12,
COCCNC(=O)c1ccccc1NS(=O)(=O)c1ccc(C)c([N+](=O)[O-])c1,8,/,1,-2,-5,-1,i,9,
COCCCNC(=O)c1cccc2c(-c3cccc(C(N)=O)c3)coc12,/,-1,/,-5,6,2,/,/,
Cc1ccc(OCc2cc(C(=O)NCC(C)c3ccccc3)no2)cc1C (configuration not stated),6,-11,17,17,-2,0,/,-5,
Cc1nc(C(=O)NNC(=O)c2cccc(Cl)c2)c(C(F)(F)F)o1,6,-4,15,3,5,2,i,-4,
Cc1cccc(N(C(=O)CCC(=O)Nc2cc(C)on2)C(C(=O)NC2CCCC2)c2ccc(C)o2)c1 (configuration not stated),-9,/,/,-22,-4,-5,i,-3,
COc1ccc(-c2cn(-c3ccc(Br)cc3)c3[n+]2CCS3)cc1,11,2,30,19,-8,-18,i,1,
Clc1ccc(-c2nnc(SCc3nc(-c4ccccc4)no3)o2)cc1,-7,-12,2,-33,1,0,i,-10,
N#Cc1cc2c(nc1SCc1cccnc1)CCC2,9,-13,21,/,1,3,i,0,
CCSc1nnc(NC(=O)c2nn(C(C)C)c(=O)c3ccccc23)s1,14,-12,-2,-79,2,-1,i,1,
CC(=O)c1ccc2c(c1)OCCOCCOCCOCCO2,9,-13,3,/,0,0,i,-1,
O=C(NCc1cccs1)C1CCC(CNS(=O)(=O)c2ccccc2)CC1 (configuration not stated),-7,/,5,-14,0,0,i,-3,
CCn1cc(C(=O)NCc2ccccc2)c(=O)c2cc(F)c(N3CCN(C(=O)c4ccco4)CC3)cc21,-4,-1,14,/,-3,-23,i,0,

# Some of the compounds tested. The share of hits here may be higher or lower than overall.
